HIV TAR-Tat: HIV-1 TAR-Tat binding disruption; AID 1259389; z-score (no concentration beside the values); 100,000 tested, 0.6% active; HIV-1 TAR RNA, Tat peptide displacement FRET; stronger effect = higher value;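 note: score is relative to mean and SD of negative controls; some compounds called inactive have numbers as strong as hits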
CDC25B-CDK2 inh: human CDC25B-CDK2/CyclinA binding inhibition; HTRF CDC25B-CDK2/CyclinA binding, anti-His/anti-Flag; stronger effect = higher value; z-score (no concentration beside the values); 94,000 tested, 0.72% active;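 note: score is relative to mean and SD of negative controls; strong numbers were not always called active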
* marks the source's active call; other numbers are inactive results; . = no result given.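 Rule for the calls: active = z-score from 3 up in half or more of its runs; inactive = the rest.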

SMILES | HIV TAR-Tat | CDC25B-CDK2 inh
CCCCCc1ccc(S(=O)(=O)Nc2ccc(C)c(NS(C)(=O)=O)c2)cc1 | . | 1.1
O=C1c2cccnc2C(=O)N1CCc1ccc(S(=O)(=O)NC2CCCC2)cc1 | 1.5 | .
COc1ccc(C(Nc2ccccn2)c2ccc3cccnc3c2O)cc1OC (configuration not stated) | . | -2.1
CC(C)CC1C(=O)N2CCC[C@H]2C2(O)O[C@](NC(=O)C3C=C4c5cccc6[nH]c(Br)c(c56)C[C@H]4N(C)C3)(C(C)C)C(=O)N12 (some centres not stated) | 1.3 | .
Cc1ccc(/C=c2\sc3nnc(-c4ccco4)n3c2=O)o1 | . | -1.7
O=C(Nc1ccc2c(c1)nc1n2CCN(C2CCCCC2)C1)C1CCCCC1 | -1.9 | -0.81
c1ccc(CNc2nc3ccccc3n2CCN2CCOCC2)nc1 | 0.18 | -0.77
Cc1nc2ccccn2c(=O)c1NC(=O)c1c(F)cccc1F | 0.54 | .
CCNC(=O)c1c(NC(=O)c2cc(=O)c3cc(CC)ccc3o2)sc2c1CCCC2 | 0.78 | -0.95
CCOC(=O)N1CCC(Nc2c(N3CCCCC3CC)c(=O)c2=O)CC1 (configuration not stated) | 2.2 | -0.54
FC(F)(F)c1cc(-c2cccs2)nc2ncnn12 | 0.76 | -0.84
CCn1ncc(C2=NOC(C(=O)Nc3ccc(F)cc3F)C2)c1C (configuration not stated) | 1.6 | -1.1
CCOC(=O)N1CCC(c2nc3ccccc3[nH]2)CC1 | -0.75 | -1.1
CN1C(C)(C)CCCC1(C)C | 2.2 | .
Cc1ccccc1-n1c(=O)c(C#N)cc2c(=O)n3ccccc3nc21 | -2.8 | -0.86
Cc1nc(NC(C)(C)C)c2sc3nc4c(cc3c2n1)COC(C)(C)C4 | -1.9 | .
CC1Cn2cc(C(=O)Nc3ccc4c(c3)OCCO4)c(=O)c3c(Cl)ccc(c32)O1 (configuration not stated) | -0.77 | .
Cc1ccc(Nc2ncnc3onc(C)c23)cc1C | -1.1 | .
COc1ccc(-c2nc(-c3ccc(Br)cc3)no2)cc1OC | -0.54 | -0.39
COc1cc(C(=O)Nc2ccc(F)c(Cl)c2)nc2ccc(Cl)cc12 | 0.22 | -1
Cc1cccn2cc(-c3cccc(S(=O)(=O)N4CCCC4)c3)nc12 | -1.4 | -1.7
Brc1ccc(OCc2nn3c(-c4ccccc4)nnc3s2)cc1 | -1.2 | 0.71
O=C(Nc1ccccc1Cl)c1c2c(nc3ccccc13)C(=O)N(C1CCCCC1)C2 | 1.6 | .
O=C(Nc1ccccc1)OCCSCc1ccc2nc(C(F)(F)F)ccc2c1 | . | -0.68
COC(=O)c1cc2c(cc1NC(=O)c1oc(=O)c3ccccc3c1-c1ccccc1)OCO2 | 0.54 | -1.3
CCN1CCN(C(=O)C2CCN(c3nn4c(=O)c5c(nc4s3)CCCC5)CC2)CC1 | 2.1 | .
COC(=O)[C@@]1(C)CC[C@]2(C)CC[C@]3(C)C(=CC(=O)C4[C@@]5(C)CCC(O)C(C)(C)C5CC[C@]43C)C2C1 (some centres not stated) | . | -2.2
CC1C(=O)Nc2ccc(S(=O)(=O)Nc3ccc(Cl)c(C(F)(F)F)c3)cc2NC1=O (configuration not stated) | . | 0.77
CC(C)(C)OC(=O)NCc1n[nH]c(=S)n1C1CC1 | . | -1.4
O=C(NCCCn1ccnc1)c1ccccc1NS(=O)(=O)c1ccc(Cl)cc1 | . | -0.41
CSc1cc(-c2cccs2)[nH]c(=O)c1C#N | . | -0.29
CCCc1nnc(N2C(=O)c3oc4ccc(F)cc4c(=O)c3C2c2ccccc2F)s1 (configuration not stated) | 0.67 | -0.56
CCOC(=O)C1CCN(c2nc3ccccc3nc2Cl)CC1 | 2.7 | -2.3
O=C(CC1SC(=Nc2cccc(F)c2)NC1=O)Nc1cc(Cl)ccc1Cl (configuration not stated) | . | -0.95
Cc1cc(SCC#N)c(C)cc1Cl | . | -0.33
O=C(c1cccn2c(=O)c3sccc3nc12)N1CCN(c2ccccc2)CC1 | . | 0.31
COc1ccc(-c2noc(-c3nnn(-c4cc(OC)ccc4OC)c3C)n2)cc1 | -0.47 | .
COc1ccc(C2C3=C(CC(C)(C)CC3=O)Nc3ccc4ccccc4c32)cc1OC (configuration not stated) | 0.39 | -0.47
CCc1nn(CC(=O)NCCN(CC)CC)c(=O)c2cc3occc3n12 | 1.5 | -0.83
CCOC(=O)Cn1c(=S)[nH]c2c(oc3ccc(Cl)cc32)c1=O | . | 0.02
CN(C(=O)c1nn(C)c2c1COc1ccccc1-2)c1ccccc1 | 0.73 | -1.2
O=C(Nc1ccc(F)cc1F)c1cnn(-c2cccc(F)c2)c1C1CCNCC1 | 0.29 | .
COC(=O)c1c(OC)cc2c(c1C)Oc1c(Cl)c(OC(C)=O)c(Cl)c(C)c1C(=O)O2 | -0.25 | .
N/C(CSc1ccc(C(F)(F)F)cn1)=N\OC(=O)c1ncc(C(F)(F)F)cc1Cl | . | -2.1
CCCCN1C(=O)c2c(NC(C)=O)c3ccccc3n2CC1(C)C(=O)NC1CCCC1 (configuration not stated) | 0.97 | .
C[Se]CC[C@H](N)C(=O)O | 0.55 | .
CC(C)(C)C(=O)NNC(=O)C(C)(C)C | . | -1.7
CC(C)CNC(=O)N1[C@H](c2cccs2)[C@@H](C)C(=O)[C@@H](C)[C@@H]1c1cccs1 | 1.2 | -1.2
CCOC(=O)Cc1nnc(C2CC(=O)N(c3ccccc3)C2)o1 (configuration not stated) | 1.8 | -2.8
CCCCN(Cc1cccs1)S(=O)(=O)c1cc(-c2cc(C)no2)ccc1C | 1.4 | .
Clc1cccc(N2CCN(CCNc3nc4ccccc4n4cnnc34)CC2)c1 | -0.23 | 0.34
CCCn1c(C)ccc(-c2noc(CCCC(=O)NCc3ccco3)n2)c1=O | -0.33 | -0.03
Cc1ccc(/C(O)=C2\C(=O)C(=O)N(CCC(=O)O)C2c2ccc(F)cc2)cc1 (configuration not stated) | . | -2.4
CC1CCc2sc3ncnc(N4CCN(c5ccccn5)CC4)c3c2C1 (configuration not stated) | . | -0.71
CC1CCN(Cc2c(O)ccc3ccccc23)CC1 | -0.24 | -0.47
COC(=O)C1=NOC2C(=O)N(c3ccc(F)cc3)C(=O)C12 (configuration not stated) | 1.4 | 0.44
CCOC(=O)COc1cccc(NC(=O)c2ccccc2Cl)c1 | . | -0.78
CCOC(=O)c1cc(-c2ccccc2)n(CCNC(=O)OC(C)(C)C)c1C | . | -1.7
COc1ccc(CNC(=O)C2CCC(Cn3c(=O)[nH]c4ccsc4c3=O)CC2)cc1 (configuration not stated) | . | -0.06
O=C(C1=C(Nc2ccc(N3CCCC3)c(Cl)c2)c2ccccc2S1(=O)=O)N1CCOCC1 | 1.8 | .
Carrying on.
SMILES | HIV TAR-Tat | CDC25B-CDK2 inh
O=C(CCCN1CCSc2ccccc21)Nc1ccc(Br)cc1F | 0.76 | .
COc1cccc2c1OC1(N3CCOCC3)CCCCC1C2C[N+](=O)[O-] (configuration not stated) | . | -1.1
CC(=O)N1c2ccc(S(=O)(=O)NCCCN3CCOCC3)cc2CC1C (configuration not stated) | 1.7 | .
CCOC(=O)c1sc(NC(=O)CCN2C(=O)c3cccc([N+](=O)[O-])c3C2=O)c(C(=O)OCC)c1C | . | -2.4
CC1c2cccn2-c2sc3c(c2CN1C(=O)NC1CCCCC1)CCN(C)C3 (configuration not stated) | 0.94 | .
Cc1ccc(N2CCN(S(=O)(=O)c3cnc[nH]3)CC2C)cc1 (configuration not stated) | 2.4 | -0.79
Cc1nnc2c(N3CCCc4ccccc43)nc3ccccc3n12 | -0.15 | -0.76
COC(=O)CSc1nc(-c2ccccc2)c2cc(Cl)ccc2n1 | -0.15 | -0.52
CC(C)CNc1cc(N2CCN(CCO)CC2)c2noc3c2c1C(=O)c1ccccc1-3 | 1.7 | -2.3
Cc1cc(C)cc(NS(=O)(=O)c2ccc(-c3cc(C)no3)s2)c1 | -0.36 | .
CCOc1cccc(NC2=NS(=O)(=O)c3ccccc32)c1 | 0.37 | -2.3
O=C1CC2(CCCC2)CC(=O)N1c1ccc(O)cc1 | . | 0.1
CCc1nnc2c3ccccc3nc(Nc3ccccc3OC)n12 | 0.82 | 0.11
Cn1c(=O)c2c(nc(OCc3ccc4c(c3)OCO4)n2Cc2ccc(Cl)cc2)n(C)c1=O | -0.55 | -0.26
COc1ccc(C2N=C(N)Nc3nc4ccccc4n32)c(OC)c1 (configuration not stated) | 0.15 | 1.6
C=CCn1ccc2cc(S(=O)(=O)N3CCCN(S(=O)(=O)c4ccccc4CC)CC3)ccc21 | 0.08 | -2.1
Cc1cc2c3c([nH]c2cc1S(=O)(=O)N(Cc1ccco1)C1CCCC1)CCCC3=O | -1.4 | .
CCOC(=O)c1c(NC(=O)Cc2coc3cc(C)cc(C)c23)sc2c1CCCC2 | -0.79 | -1.6
O=P(c1ccccc1)(c1ccccc1)c1nc(P(=O)(c2ccccc2)c2ccccc2)nc(P(=O)(c2ccccc2)c2ccccc2)n1 | . | -2.7
Cc1ccccc1C(=O)Nc1c(C)nc2ccc(Cl)cn2c1=O | 0.98 | .
O=c1c(N2CCN(CCc3ccccc3)CC2)csc2ccc(F)cc12 | -1.9 | .
CCc1ccc2[nH]cc(S(=O)(=O)c3ccc(Cl)cc3)c(=O)c2c1 | 0.35 | -2.3
COC(=O)c1cccc2cc[nH]c12 | . | -0.69
Cc1cc(C)c2c(n1)nn1c(C)c(CCC(=O)NC(C)CCc3ccco3)c(C)nc21 (configuration not stated) | . | -1.2
O=C1C(c2ccccc2)=C(Nc2cccc(F)c2)c2ccccc21 | 1.5 | -0.39
Cc1ccc(OCCn2c(C(O)c3ccccc3)nc3ccccc32)cc1 (configuration not stated) | 2.4 | -2.6
O=C1c2ccccc2-c2onc3ccc(Nc4ccccc4)c1c23 | -9 | -2.1
Brc1ccc(CSc2nnc(-c3cccs3)o2)cc1 | 0.39 | -2.2
Cc1ccc(CNC(=O)Cn2c(=O)oc3cc(Cl)ccc32)o1 | . | 0.27
O=C(CCc1ccc(-n2cnc3cccnc32)cc1)NC1CCCC1 | -3.7 | .
CN1CCN(c2nc3c(c(=O)n(Cc4ccccc4)c(=O)n3C)n2C)CC1 | . | 0.13
COc1ccc(C(=O)COC(=O)CN2CC(=O)Oc3ccccc32)cc1Br | -0.38 | -0.27
CC(=O)Nc1ccc(/C=N/NC(=O)c2ccccc2[N+](=O)[O-])cc1 | . | -1.5
Cc1ccc(Nc2nc(=O)[nH]nc2C)cc1Cl | 1.4 | -0.54
CCOC(=O)c1oc2ccc(S(=O)(=O)NC3COc4c(cccc4OCC)C3)cc2c1C (configuration not stated) | 0.95 | .
CCCCCOC(=O)C1=C(C)Nc2ncnn2C1c1cc(OC)ccc1OC (configuration not stated) | 0.59 | -0.04
CCOC(=O)N1CCC(NC(=O)Cn2c(=O)oc3cc(Cl)ccc32)CC1 | -0.61 | .
C=CCn1c(=O)sc2cc(NC(=O)Cc3ccc(Cl)cc3)ccc21 | 0.59 | .
O=C1CCC(C2CCC(=O)CC2)CC1 | 2 | -1.4
CC1=[N+]([O-])C(C)(C)C(c2ccc(C)o2)=[N+]1[O-] | . | -1.3
CN(C(=O)c1cc2c(s1)-c1ccc(Cl)cc1S(=O)(=O)C2)c1ccccc1F | 1.1 | -0.72
N#CNC(=Nc1cccc(Cl)c1)Oc1ccccc1 | . | -0.34
Cc1ccsc1CCNC(=O)c1ccc2c(=O)[nH]c3c(C(=O)NC(C)C)sc(=S)n3c2c1 | 0.67 | .
CCNC(=O)c1c(NC(=O)c2cc(-c3cccs3)on2)sc2c1CCCC2 | -0.58 | -2.8
COC(=O)C(C)Oc1ccc2oc(C)c(C(=O)OC(C)C)c2c1 (configuration not stated) | . | -0.84
COc1ccc(OC(=O)c2cc(-c3ccc4c(c3)OCCO4)on2)cc1 | -0.42 | -0.47
Cc1cc(NC(=O)c2ccco2)no1 | 0.45 | 0.14
CC(=O)OCC(=O)[C@@]1(O)CCC2C3C[C@H](C)C4=CC(=O)C=CC4(C)C3[C@@H](O)CC21C (some centres not stated) | 1.2 | .
